Screens: PubChem BioAssay, National Center for Advancing Translational Sciences (NCATS)
SARS PLpro yeast: qHTS of Yeast-based Assay for SARS-CoV PLP | Potency, µM (highest dose often 32.9 µM), without a hit: at the top dose activity, positive = growth rescue | actives 0.19% (n = 330,000) | S. cerevisiae expressing SARS-CoV PLpro, growth rescue; control for the full effect not named in the record; active means well fitted rising curve with a large enough effect; inconclusive means small, poorly fitted or top-dose-only effect; inactive means no such curve, though single readings can be large or run the other way; note: 0% is about no effect; nearly all actives have a fitted effect of over 55% in size; growth read by luminescence after 48 h
2A StopGo: High Throughput Screening for Foot and Mouth Disease Virus Antivirals. Potency, µM (top dose mostly 57.9 µM), for the others: at the top dose signal change, negative = less light. AID 1159524, 2015. human cells with a luciferase reporter of 2A StopGo recoding; control for the full effect not named in the record. actives 1.2% (n = 410,000); active = well fitted falling curve with a large enough effect; inconclusive = small, poorly fitted or top-dose-only effect; inactive = no such curve, though single readings can be large or run the other way; tested in HEK293T cells; note: % is set by controls: 0 for no effect and ±100 for the full control effect; nearly all actives have a fitted effect of over 45% in size; luciferase light after 4 h
Cruzain Triton: qHTS Assay for Promiscuous and Specific Inhibitors of Cruzain (with detergent); Cruzipain (Trypanosoma cruzi), P25779; purified cruzain, Z-FR-AMC fluorescence, 0.01% Triton; Potency, µM, for the others: max response, negative = inhibition, hits mostly inhibitors; AID 1478, 2009; actives 0.43% (n = 200,000);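 note: plate controls were neutral wells for no effect and buffer without enzyme for full effect; nearly all actives have a fitted effect of over 40% in size; top concentration of the series not given in the record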
Target sequence (P25779 123-467 limits assumed): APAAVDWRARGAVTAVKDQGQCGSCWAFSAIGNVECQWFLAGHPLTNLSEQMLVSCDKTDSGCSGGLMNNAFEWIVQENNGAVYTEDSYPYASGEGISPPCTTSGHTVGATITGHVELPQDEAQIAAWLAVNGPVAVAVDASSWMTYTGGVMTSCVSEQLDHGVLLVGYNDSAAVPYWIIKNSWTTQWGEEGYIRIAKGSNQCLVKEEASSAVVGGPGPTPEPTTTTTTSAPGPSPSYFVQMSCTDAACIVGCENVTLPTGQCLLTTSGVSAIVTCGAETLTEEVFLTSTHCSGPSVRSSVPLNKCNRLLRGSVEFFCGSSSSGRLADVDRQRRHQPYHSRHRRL
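15 min RT preincubation of 1.5 nM cruzain with compound, then 2 uM Z-FR-AMC added; kinetic AMC fluorescence, 60 s delta. Triton X-100 0.01%, pH 5.5.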
Lassa entry inh: qHTS for Inhibitors of binding or entry into cells for Lassa Virus | Lassa virus pseudotype entry inhibition, cell reporter; control for the full effect not named in the record | Potency, µM (doses to about 37.9 µM), for the others: top-dose activity change, negative = inhibition, hits mostly inhibitors | actives 1.2% (n = 300,000); active means well fitted inhibition curve with a large enough effect; inconclusive means small, poorly fitted or top-dose-only effect, or effect the other way; inactive means flat fitted curve, though single readings scatter; tested in HEK293 cells; note: % is set by controls: 0 for no effect and ±100 for the full control effect; nearly all actives have a fitted effect of over 50% in size; luciferase read-out
MARV entry inh: qHTS for inhibitors of binding or entry into cells for Marburg Virus; Marburg virus pseudotyped entry inhibition, cell reporter; control for the full effect not named in the record; about a third of the inactives were read at about 46 µM; Potency, µM (highest dose often 37.8 µM), for the others: top-dose activity change, negative = inhibition, usual class: inhibitors; AID 540276, 2011; actives 1.8% (n = 300,000); active = well fitted inhibition curve with a large enough effect; inconclusive = small, poorly fitted or top-dose-only effect, or effect the other way; inactive = flat fitted curve, though single readings scatter; tested in HEK293 cells; about a fifth of its hits are not listed in these tables; note: % is set by controls: 0 for no effect and ±100 for the full control effect; luciferase read-out
RE007 growth inh: qHTS Assay for Inhibitors of the HIV-1 protein Vpr; AID 651644, 2012; S. pombe RE007 Vpr strain, BacTiter-Glo ATP luminescence, 24 h; control for the full effect not named in the record; actives 0.21% (n = 360,000); Potency, µM (doses to about 92.2 µM), without a hit: at the highest dose activity change, negative = less growth; active = well fitted falling curve with a large enough effect; inconclusive = small, poorly fitted or top-dose-only effect; inactive = no such curve, though single readings can be large or run the other way;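 note: % is set by controls: 0 for no effect and ±100 for the full control effect; nearly all actives have a fitted effect of over 50% in size; the assay follows cell death caused by Vpr and the record does not say whether a fall means rescue or toxicity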
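Fission yeast strain RE007, carrying one chromosomally integrated HIV-1 vpr copy, was seeded at OD 0.01 in PMG+AL medium with 23 nL pinned compound. After 24 h at 30 °C and 99% humidity, viability was read by BacTiter-Glo luminescence.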
Cruzain noTriton: qHTS Assay for Promiscuous and Specific Inhibitors of Cruzain (without detergent). purified cruzain, Z-FR-AMC fluorescence, no detergent. actives 2.3% (n = 200,000). Cruzipain (Trypanosoma cruzi), P25779. Potency, µM, without a hit: max response, negative = inhibition, actives largely listed as inhibitors;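 note: plate controls were enzyme without inhibitor for no effect and buffer without enzyme for full effect; nearly all actives have a fitted effect of over 40% in size; top concentration of the series not given in the record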
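Detergent-free condition (0.00005% Triton X-100) in acetate buffer pH 5.5 with DTT. 1.5 nM enzyme and compound were pre-mixed 15 min, then 2 uM Z-FR-AMC substrate added; reaction progress from fluorescence change between first and third reads (60 s).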
NS1 inh: qHTS Assay for Inhibitors of Influenza NS1 Protein Function; S. cerevisiae slowed by influenza A NS1, growth recovery by OD600; Potency, µM (top dose mostly 46.1 µM), without a hit: at the top dose activity, positive = more growth; actives 0.4% (n = 270,000); active means well fitted rising curve with a large enough effect; inconclusive means small, poorly fitted or top-dose-only effect; inactive means no such curve, though single readings can be large or run the other way; note: nearly all actives have a fitted effect of over 50% in size
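Recovery from NS1-induced slow growth read by OD600 in budding yeast switched to galactose assay medium (pH 6.0, -URA) at 1:100 dilution. Compound 23 nl per well; the matching strain lacking NS1 serves as control.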
Starred values were filed as active, the others as inactive; u = inconclusive; x = no result given; & = joins results of further samples; [ ] = another dose, or the depositor's remark. Unless noted, calls come from the whole dose curve; as a rule, active = well fitted curve in the direction sought with a large enough effect; inconclusive = small, poorly fitted or top-dose-only effect, or another doubt; inactive = no such curve, though single readings can be large; an effect the other way counts as inactive or inconclusive. Potency is the fitted concentration of half-maximal effect.

item	mol	SARS PLpro yeast	2A StopGo	Cruzain Triton	Lassa entry inh	MARV entry inh	RE007 growth inh	Cruzain noTriton	NS1 inh
1	CC(C)C(NS(=O)(=O)c1cccc2nsnc12)C(=O)NCc1ccc2c(c1)OCO2 (stereo not drawn)	3%	4%	-2.5%	x	-1%	5%	-22%	-3%
2	Cc1cc(F)ccc1NCc1ccncc1	-4%	x	-1.8%	18%	1%	6%	3%	-2%
3	COc1ccc(-c2n[nH]c(=S)n2Cc2ccccc2)cc1OC	2%	-10%	x	u	7%	10%	x	1%
4	CSc1nc(C)c(Cl)c(C)c1C#N	0%	3%	0.0%	5%	-1%[46.1 µM]	13%	-2%	2%
5	C[N+](C)(C)CCCC(=O)c1ccc2c(c1)OCO2	5%	-7%	2.6%	16%	0%	-6%	-3%	-3%
6	CSc1ccc(CCNS(=O)(=O)c2ccc3c(c2)C(C)(C)C(=O)N3C)cc1	0%	54%&77%[activator]	-1.4%	-24%[46.1 µM]	x	13%	3%	-4%
7	CCCOc1cccc(C(=O)N(Cc2ccccc2)C2CCS(=O)(=O)C2)c1 (stereo not drawn)	0%	-20%	x	u	u	-18%	x	-8%
8	CN(Cc1ccccc1)C(=O)c1cn(C)c2ccc(S(=O)(=O)N3CCCC3)cc2c1=O	0%	18%	x	x	x	12%	x	4%

Looked up above:
`Cc1cc(F)ccc1NCc1ccncc1` | Lassa entry inh = 18%
`CC(C)C(NS(=O)(=O)c1cccc2nsnc12)C(=O)NCc1ccc2c(c1)OCO2` (stereo not drawn) | Cruzain noTriton = -22%
`CSc1nc(C)c(Cl)c(C)c1C#N` | 2A StopGo = 3%
`COc1ccc(-c2n[nH]c(=S)n2Cc2ccccc2)cc1OC` | 2A StopGo = -10%
`CCCOc1cccc(C(=O)N(Cc2ccccc2)C2CCS(=O)(=O)C2)c1` (stereo not drawn) | NS1 inh = -8%

Just MARV entry inh, for some of the entries so far:
cpd	canonical_smiles	MARV entry inh
3	COc1ccc(-c2n[nH]c(=S)n2Cc2ccccc2)cc1OC	7%
4	CSc1nc(C)c(Cl)c(C)c1C#N	-1%[46.1 µM]

(next part)
item	mol	SARS PLpro yeast	2A StopGo	Cruzain Triton	Lassa entry inh	MARV entry inh	RE007 growth inh	Cruzain noTriton	NS1 inh
9	Cc1cc(C)cc(OCC(=O)OCC(=O)Nc2ccc(Cl)cn2)c1	33%	-23%	-4.6%	9%	13%[46.1 µM]	-1%	4%	-2%
10	O=C(OC(C(=O)NC1CCCC1)c1ccncc1)C1=Cc2ccccc2OC1 (stereo not drawn)	8%	u	-6.0%	-19%	-5%	-12%	-3%	1%
11	COc1ccc(CNC(=O)c2ccc(NC(=O)N3CCCCc4ccccc43)cc2)c(OC)c1	x	1%	-5.0%	u	x	x	-9%	x
12	COc1ccc(NC(=O)O/N=C/c2ccc(N(C)C)cc2)cc1	-3%	12%	x	26%[46.1 µM]	u	-8%	x	-7%
13	O=C(NCCCn1ccnc1)c1cc(C2CC2)on1	1%	-19%	-0.1%	x	x	2%	-12%	-5%
14	Cc1ncoc1C(=O)N1CCCC(N2CCN(c3cccc(C(F)(F)F)c3)CC2)C1 (stereo not drawn)	-2%	-12%	x	x	x	-13%	x	3%
15	CCCC(=O)Oc1cccc(C2NC(=O)c3ccccc3O2)c1 (stereo not drawn)	-3%	-15%	x	x	x	3%	x	-6%
16	COC(=O)[C@H](C)NC(=O)NCCC1=CCCCC1	0%	15%	x	u	-3%	-10%	x	-6%

(continued)
item	mol	SARS PLpro yeast	2A StopGo	Cruzain Triton	Lassa entry inh	MARV entry inh	RE007 growth inh	Cruzain noTriton	NS1 inh
17	CCCCCC(C)NC(=O)CN1C(=O)NC(C)(c2ccc3ccccc3c2)C1=O (stereo not drawn)	23%	-9%	x	-5%	-27%	-27%	x	-43%
18	O=C(NCC(c1cccnc1)N1CCOCC1)c1cccs1 (stereo not drawn)	-4%	-18%	3.3%	1%	19%	10%	5%	-5%
19	COc1ccccc1CNC(=O)c1ccc(N2CCCC2)c(NC(=O)NCc2ccc(F)cc2)c1	x	-17%	4.8%	3%[46.1 µM]	x	x	8%	x
20	COc1cc(C(F)(F)F)nc2c(Br)c(C(C)(C)C)nn12	-3%	-20%	x	-16%	6%[46.1 µM]	-1%	x	-3%
21	CC(NC(=O)NC12CC3CC(CC(C3)C1)C2)c1ccc2c(c1)OCO2 (stereo not drawn)	-2%	u	x	2%	7%[46.1 µM]	25%	x	-1%
22	CCN(Cc1ccccc1)Cc1ccc(OCc2ccccc2)c(OC)c1	-4%	-30%	x	x	x	8%	x	-6%
23	Cc1ccc(S(=O)(=O)NC(=O)N2CCCN(Cc3ccc(F)cc3)CC2)cc1	0%	19%	x	12%	u	5%	x	4%
24	CCn1c(C)c(C(C)=O)c(SC)nc1=S	-2%	-2%	0.3%	12%	u	5%	-5%	4%

(further entries)
item	mol	SARS PLpro yeast	2A StopGo	Cruzain Triton	Lassa entry inh	MARV entry inh	RE007 growth inh	Cruzain noTriton	NS1 inh
25	O=C(Nc1ncc(Cc2ccc(Cl)cc2)s1)c1ccc2c(c1)CC(c1ccccc1)OC2=O (stereo not drawn)	x	-23%	-1.1%	17%[46.1 µM]	11%[46.1 µM]	x	u	x
26	Cc1cc(Cl)ccc1NC(=O)COC(=O)c1nc2nccc(C)n2n1	3%	25%	x	2%	u	5%	x	x
27	CCN(CC)S(=O)(=O)c1ccc(C)c(NC(=O)COc2ccc3c(C)cc(=O)oc3c2)c1	-1%	u	-4.3%	1%	u	1%	1%	0%
28	COc1ccccc1N1CCN(Cc2nc3ccsc3c(=O)[nH]2)CC1	0%	-10%	-2.6%	5%	15%	0%	-2%	-3%
29	CCOc1ccc(NC(=O)CN(C)C(=O)CCNC(=O)c2ccccc2Cl)cc1OCC	-3%	-2%	x	-12%	11%	2%	x	x
30	CC(C)CCNC(=O)CCn1nc(-c2ccccc2)ccc1=O	-1%	-3%	4.0%	6%	u	3%	-11%	-5%
31	COc1cc(OC)c(NC(=O)CCNC(=O)Cn2ccc3ccccc3c2=O)cc1Cl	1%	-22%	3.7%	11%	-4%	17%	-11%	u
32	COc1cccc(-n2c(SCC(=O)Nc3cc(C)on3)nc3ccccc3c2=O)c1	0%	-16%	-4.3%	3%	u	7%	7%	6%

(list continues)
item	mol	SARS PLpro yeast	2A StopGo	Cruzain Triton	Lassa entry inh	MARV entry inh	RE007 growth inh	Cruzain noTriton	NS1 inh
33	CCCCCCCC(=O)N/N=C/c1cccnc1	-16%	x	1.8%	3%	-13%	5%	5%	-46%
34	Cc1ccc(NC(=O)C2CCCN2C(=O)Oc2ccccc2)cc1 (stereo not drawn)	1%	0%	0.8%	9%	9%	4%	3%	-2%
35	CC(=O)N1CCOc2ccc(S(=O)(=O)Nc3cccc(C)c3)cc21	13%	20%	x	x	x	2%	x	7%
36	O=S(Cc1ccc(Cl)cc1)c1ccccc1 (stereo not drawn)	x	40%[activator]	x	-10%[46.1 µM]	-17%[46.1 µM]	8%	x	x
37	O=[N+]([O-])c1cc(-c2nc(-c3ccncc3)no2)ccc1NCc1ccccc1	x	4%	-4.3%	-29%[46.1 µM]	19%[46.1 µM]	x	9%	x
38	CC(C)(C)n1cnc2cc(NCc3ccc(Br)cc3)ccc21	1%	11%	x	-21%[46.1 µM]	u	-19%	x	-4%
39	CNC(=O)C1CCC(Cn2c(=O)[nH]c3ccsc3c2=O)CC1 (stereo not drawn)	x	-15%	-1.9%	3%[46.1 µM]	x	x	-12%	x
40	CCCCS(=N)(=O)CC[C@H](N)C(=O)O (stereo partly drawn)	x	x	-3.2%	2%	-24%&20%&20%	x	8%	-6%

Values by screen from above.
Lassa entry inh, compounds 33 to 40: 3%, 9%, x, -10%[46.1 µM], -29%[46.1 µM], -21%[46.1 µM], 3%[46.1 µM], 2%

Going on with the list.
item	mol	SARS PLpro yeast	2A StopGo	Cruzain Triton	Lassa entry inh	MARV entry inh	RE007 growth inh	Cruzain noTriton	NS1 inh
41	CCc1ccc(NC(=O)CSc2nc(=O)n(CCCN3CCOCC3)c3c2CCCC3)cc1	5%	-9%	x	-5%	-6%	12%	x	x
42	Cc1cccc(NS(=O)(=O)c2cc(C(=O)N3CCCC3)ccc2Cl)c1	-1%	26%	-1.5%	17%	-2%	-6%	-4%	-7%
43	COc1ccccc1Nc1c2c(nc3ccc(NC(=O)c4cccc(OC)c4OC)cc13)CCCC2	x	u	-11%	7.9µM*	u	x	-7%	x
44	O=C(CN1CCc2ccccc2C1)Nc1ccccc1Cl	3%	-4%	x	x	x	-18%	x	-14%
45	CN1C/C(=C/c2cccnc2)C(=O)/C(=C/c2cccnc2)C1	-57%	3.2µM*	-1.6%	u	1.8µM*	7%	8%	-19%
46	Cc1cccc(C)c1OCc1nc2c3cnn(-c4cccc(F)c4)c3ncn2n1	x	-4%	-0.5%	21%[46.1 µM]	15%[46.1 µM]	x	2%	x
47	COc1ccc(C(=O)/C=C/c2cc(OC)c(O)c(OC)c2)c(F)c1	-33%	u	-19%	13µM*	u	-28%	11%	-19%
48	O=C(Nc1ccnn1C1CCN(C(=O)c2ccc(C(F)(F)F)cc2)CC1)C1CC1	-6%	7%	x	x	x	-10%	x	-6%
49	COc1cccc(N2CCN(c3ccc([N+](=O)[O-])cn3)CC2)c1	-1%	u	x	x	x	-3%	x	-1%
50	CCC(NC(=O)c1ccccc1O)c1ccccc1 (stereo not drawn)	-17%	u	-1.1%	1%	1%	-9%	2%	-85%
51	COc1ccc(OCCCCOc2ccccc2Cl)cc1	-19%	x	-0.8%	-23%	10%	10%	-7%	-2%
